Compound activity as filed in PubChem BioAssay.
Cruzain inh Det – inhibitors of Trypanosoma cruzi cruzain with detergent. Potency, µM, for the others: max response, negative = inhibition, most hits filed as inhibitors. P25779. AID 1478. 200,000 tested, 0.43% active. purified cruzain, Z-FR-AMC fluorescence, 0.01% Triton; active = well fitted curve in the direction sought with a large enough effect; inconclusive = small, poorly fitted or top-dose-only effect, or another doubt; inactive = no such curve, though single readings can be large; an effect the other way counts as inactive or inconclusive;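 note: plate controls were neutral wells for no effect and buffer without enzyme for full effect; nearly all actives have a fitted effect of over 40% in size; top concentration of the series not given in the record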
Target sequence (P25779 123-467 limits assumed): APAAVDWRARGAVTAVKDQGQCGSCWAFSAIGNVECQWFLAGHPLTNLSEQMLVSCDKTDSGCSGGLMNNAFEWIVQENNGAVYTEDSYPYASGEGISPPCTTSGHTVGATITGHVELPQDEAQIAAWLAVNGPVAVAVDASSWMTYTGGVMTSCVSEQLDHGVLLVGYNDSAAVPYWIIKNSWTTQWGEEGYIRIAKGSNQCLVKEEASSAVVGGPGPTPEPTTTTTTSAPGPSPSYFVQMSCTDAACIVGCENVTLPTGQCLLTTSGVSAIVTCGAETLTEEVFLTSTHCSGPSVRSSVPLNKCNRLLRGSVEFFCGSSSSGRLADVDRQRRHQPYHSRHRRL
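Read-out: AMC fluorescence (360 nm excitation, 450 nm emission), four reads over 2 min, first-to-third difference used. Conditions: cruzain 1.5 nM, Z-FR-AMC 2 uM, pH 5.5 acetate, 5 mM DTT, 0.01% Triton X-100.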
LASV entry inh – Lassa virus entry inhibition; Lassa virus pseudotype entry inhibition, cell reporter; control for the full effect not named in the record; 300,000 tested, 1.2% active; Potency, µM (doses to about 37.9 µM), without a hit: at the top dose activity change, negative = inhibition, usual class: inhibitors; active means well fitted inhibition curve with a large enough effect; inconclusive means small, poorly fitted or top-dose-only effect, or effect the other way; inactive means flat fitted curve, though single readings scatter; tested in HEK293 cells; note: % is set by controls: 0 for no effect and ±100 for the full control effect; nearly all actives have a fitted effect of over 50% in size; luciferase read-out
RE007 growth inh – less growth of the S. pombe RE007 Vpr strain; S. pombe RE007 Vpr strain, BacTiter-Glo ATP luminescence, 24 h; control for the full effect not named in the record; Potency, µM (doses to about 92.2 µM), inactives show at the top dose activity change, negative = less growth; 360,000 tested, 0.21% active; AID 651644; active = well fitted falling curve with a large enough effect; inconclusive = small, poorly fitted or top-dose-only effect; inactive = no such curve, though single readings can be large or run the other way;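 note: % is set by controls: 0 for no effect and ±100 for the full control effect; nearly all actives have a fitted effect of over 50% in size; the assay follows cell death caused by Vpr and the record does not say whether a fall means rescue or toxicity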
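Fission yeast RE007 carrying one integrated HIV-1 vpr copy, seeded at OD 0.01 in PMG+AL medium with 23 nL pinned compound. Grown 24 h at 30 degrees; viability read by BacTiter-Glo luminescence after 5 min.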
Cruzain inh noDet – cruzain (T. cruzi) inhibition without detergent; P25779; purified cruzain, Z-FR-AMC fluorescence, no detergent; Potency, µM, without a hit: max response, negative = inhibition, hits mostly inhibitors; 200,000 tested, 2.3% active; AID 1476; active = well fitted curve in the direction sought with a large enough effect; inconclusive = small, poorly fitted or top-dose-only effect, or another doubt; inactive = no such curve, though single readings can be large; an effect the other way counts as inactive or inconclusive;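 note: plate controls were enzyme without inhibitor for no effect and buffer without enzyme for full effect; nearly all actives have a fitted effect of over 40% in size; top concentration of the series not given in the record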
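Detergent-free condition (0.00005% Triton X-100) in acetate buffer pH 5.5 with DTT. 1.5 nM enzyme and compound were pre-mixed 15 min, then 2 uM Z-FR-AMC substrate added; reaction progress from fluorescence change between first and third reads (60 s).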
Marburg entry inh – inhibitors of Marburg virus binding or cell entry | AID 540276 | Potency, µM (series often up to 37.8 µM), without a hit: top-dose activity change, negative = inhibition, actives largely listed as inhibitors | 300,000 tested, 1.8% active | Marburg virus pseudotyped entry inhibition, cell reporter; control for the full effect not named in the record; about a third of the inactives were read at about 46 µM; active = well fitted inhibition curve with a large enough effect; inconclusive = small, poorly fitted or top-dose-only effect, or effect the other way; inactive = flat fitted curve, though single readings scatter; tested in HEK293 cells; about a fifth of its hits are not listed in these tables; note: % is set by controls: 0 for no effect and ±100 for the full control effect; luciferase read-out
SARS PLpro yeast – SARS-CoV PLP inhibition in yeast; S. cerevisiae expressing SARS-CoV PLpro, growth rescue; control for the full effect not named in the record; Potency, µM (highest dose often 32.9 µM), for inactives: top-dose activity, positive = growth rescue; 330,000 tested, 0.19% active; AID 485353; note: 0% is about no effect; nearly all actives have a fitted effect of over 55% in size; growth read by luminescence after 48 h
StopGo reporter – lowers the luciferase signal of an FMDV 2A StopGo reporter | Potency, µM (titrated, usually from 57.9 µM), for the others: top-dose signal change, negative = less light | human cells with a luciferase reporter of 2A StopGo recoding; control for the full effect not named in the record | 410,000 tested, 1.2% active | AID 1159524; active = well fitted falling curve with a large enough effect; inconclusive = small, poorly fitted or top-dose-only effect; inactive = no such curve, though single readings can be large or run the other way; tested in HEK293T cells; note: % is set by controls: 0 for no effect and ±100 for the full control effect; nearly all actives have a fitted effect of over 45% in size; luciferase light after 4 h
NS1 function inh – inhibitors of influenza NS1 protein function | S. cerevisiae slowed by influenza A NS1, growth recovery by OD600 | Potency, µM (titrated, usually from 46.1 µM), without a hit: top-dose activity, positive = more growth | 270,000 tested, 0.4% active | AID 2326; note: actives are rising curves; nearly all actives have a fitted effect of over 50% in size
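A cell-based growth assay was used: compounds that relieve NS1-induced slow growth of budding yeast raise OD600. Assay medium was yeast nitrogen base with ammonium sulphate and -URA supplement, pH 6.0, with 2% galactose.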
* hit, by the source's call; [ ] = dose if it differs, or a comment. Unless noted, calls come from the whole dose curve; as a rule, active means well fitted rising curve with a large enough effect; inconclusive means small, poorly fitted or top-dose-only effect; inactive means no such curve, though single readings can be large or run the other way. Potency is the fitted concentration of half-maximal effect.

What do the screens show for `COc1ccccc1N(Cc1ccccc1)S(=O)(=O)c1cccc(C(=O)Nc2cc(C)ccn2)c1`?
LASV entry inh: inconclusive; RE007 growth inh: -3%; Marburg entry inh: inconclusive; SARS PLpro yeast: -7%; StopGo reporter: inconclusive; NS1 function inh: 2%

What do the screens show for `Cc1ccc(N2C(=O)C(Cl)=C(N3CCCCCC3)C2=O)cc1`?
RE007 growth inh: -14%; SARS PLpro yeast: -3%; StopGo reporter: 47%[activator]; NS1 function inh: 2%

How did Cc1cc2cc(CNC(=O)Nc3cccc(Cl)c3)ccc2n1C do in these assays?
Cruzain inh Det: 2.1%; RE007 growth inh: 13%; Cruzain inh noDet: 13µM*; SARS PLpro yeast: -5%; StopGo reporter: 3%; NS1 function inh: inconclusive

How did C[C@H](NC(=O)[C@H](Cc1ccccc1)n1c(=O)[nH]c2ccccc2c1=O)C(=O)N1CCC[C@H]1C(=O)O do in these assays?
RE007 growth inh: -9%; SARS PLpro yeast: 8%; StopGo reporter: -22%; NS1 function inh: -8%

How did C=CCNC(=S)N(Cc1ccccc1)Cc1ccc(F)cc1 do in these assays?
LASV entry inh: inconclusive; RE007 growth inh: -19%; Marburg entry inh: inconclusive; SARS PLpro yeast: 1%; StopGo reporter: -2%; NS1 function inh: -2%

What do the screens show for `CC1(C)CC(NC(=O)C(F)(F)F)CC(C)(C)N1OC(=O)c1ccco1`?
Cruzain inh Det: 3.9%; LASV entry inh: inconclusive; RE007 growth inh: -3%; Cruzain inh noDet: 3%; Marburg entry inh: -25%; SARS PLpro yeast: -2%; StopGo reporter: 17%; NS1 function inh: -2%

How did Cc1cc(C)cc(NC(=O)c2cc(CN3CCCC3)on2)c1 do in these assays?
Cruzain inh Det: -0.7%; LASV entry inh: 17%[46.1 µM]; Cruzain inh noDet: -9%; StopGo reporter: 42%[activator]

Results for CCOC(=O)c1cccc(NC(=O)C2CCCN2S(=O)(=O)c2cccc3cccnc23)c1 (configuration not stated) ?
Cruzain inh Det: -5.1%; RE007 growth inh: 5%; Cruzain inh noDet: 1%; SARS PLpro yeast: -11%; StopGo reporter: -5%; NS1 function inh: -8%

Results for COc1ccc(OC)c(NC(=O)c2ccc(OC3CSC3)cc2)c1 ?
LASV entry inh: 1%; RE007 growth inh: -2%; Marburg entry inh: 15%; SARS PLpro yeast: -1%; StopGo reporter: 33%[activator]

Results for Cc1onc(-c2ccccc2)c1C(=O)Nc1ccc(S(=O)(=O)NC(C)(C)C)cc1 ?
LASV entry inh: inconclusive; RE007 growth inh: -11%; Marburg entry inh: -3%[46.1 µM]; SARS PLpro yeast: 1%; StopGo reporter: 13%; NS1 function inh: -7%

Results for COc1ccc(N2CC2c2ccncc2)cc1 (configuration not stated) ?
LASV entry inh: -5%[46.1 µM]; RE007 growth inh: -5%; Marburg entry inh: -17%[46.1 µM]; SARS PLpro yeast: 1%; StopGo reporter: -5%; NS1 function inh: 24%

How did O=c1c2cn(Cc3ccccc3)c3ccccc3c-2nn1Cc1ccc(F)cc1Cl do in these assays?
LASV entry inh: 25%[46.1 µM]; RE007 growth inh: -1%; Marburg entry inh: -13%[46.1 µM]; SARS PLpro yeast: -1%; StopGo reporter: -1%; NS1 function inh: -1%

How did O=C(Cc1cc2ccccc2o1)NCc1ccc(F)cc1 do in these assays?
RE007 growth inh: 1%; SARS PLpro yeast: -3%; StopGo reporter: 26%; NS1 function inh: -6%

Results for O=C(/C=C/c1ccc(Br)cc1)N1CCN(c2cccc(C(F)(F)F)c2)CC1 ?
Cruzain inh Det: -9.3%; RE007 growth inh: -8%; Cruzain inh noDet: 5%; SARS PLpro yeast: -39%; StopGo reporter: inconclusive; NS1 function inh: -1%

What do the screens show for `CCc1ccccc1NC(=O)CCNS(=O)(=O)c1ccc2c(c1)CCN2C(=O)C1CC1`?
Cruzain inh Det: -0.7%; LASV entry inh: -8%[46.1 µM]; Cruzain inh noDet: 11%; StopGo reporter: -12%

What do the screens show for `COc1cc(OCC(=O)NC(C)C)cc2c1C(=O)O[C@@H](C)CCCC(=O)CCCCC2`?
RE007 growth inh: 4%; SARS PLpro yeast: 1%; StopGo reporter: -27%; NS1 function inh: -3%

What do the screens show for `O=S(=O)(c1ccc(Cl)cc1)N1CCSC1c1ccco1` (configuration not stated)?
Cruzain inh Det: -3.6%; LASV entry inh: 1%; RE007 growth inh: 15%; Cruzain inh noDet: -2%; Marburg entry inh: 7%; SARS PLpro yeast: -2%; StopGo reporter: 5%; NS1 function inh: -48%

Results for CN(Cc1ccccc1)C(=O)Cn1ncc2c3ccccc3n(Cc3cccc(Cl)c3)c2c1=O ?
Cruzain inh Det: -5.3%; LASV entry inh: 13%[46.1 µM]; Cruzain inh noDet: 5%; Marburg entry inh: -4%[46.1 µM]; StopGo reporter: 27%

What do the screens show for `CC(=O)N1N=C(c2ccc(C)cc2)OC1c1ccc(Br)cc1` (configuration not stated)?
LASV entry inh: 29%; RE007 growth inh: 21%; Marburg entry inh: inconclusive; SARS PLpro yeast: 1%; StopGo reporter: 35%[activator]; NS1 function inh: 4%

How did COc1ccc(Br)cc1C1NC(=O)c2c(sc3c2CCN(C)C3)N1 (configuration not stated) do in these assays?
Cruzain inh Det: -5.2%; LASV entry inh: -8%; RE007 growth inh: 11%; Cruzain inh noDet: -1%; Marburg entry inh: 1%; SARS PLpro yeast: 5%; StopGo reporter: 1%; NS1 function inh: 7%

Results for Cc1ccc(C)c(S(=O)(=O)N2CCCC2CNC(=O)C(=O)NCc2ccccc2)c1 (configuration not stated) ?
LASV entry inh: inconclusive; RE007 growth inh: 24%; Marburg entry inh: 4%; SARS PLpro yeast: -2%; StopGo reporter: -24%

How did C=CCN1C(=O)C(O)(CC(=O)c2ccccc2)c2ccccc21 (configuration not stated) do in these assays?
Cruzain inh Det: 3.3%; LASV entry inh: 5%; RE007 growth inh: -25%; Cruzain inh noDet: 8%; Marburg entry inh: 26%; SARS PLpro yeast: 4%; StopGo reporter: -13%; NS1 function inh: -15%

Results for COc1ccc(-c2nc(C#N)c(NCc3ccc(F)cc3)o2)cc1OC ?
Cruzain inh Det: 6.2%; LASV entry inh: -1%; RE007 growth inh: -3%; Cruzain inh noDet: inconclusive; Marburg entry inh: 0%; SARS PLpro yeast: 4%; StopGo reporter: inconclusive; NS1 function inh: -17%

What do the screens show for `CC1=C(C(=O)OC2CCCC2)C(c2c(Cl)cccc2Cl)CC(=O)N1` (configuration not stated)?
Cruzain inh Det: -8.8%; LASV entry inh: 13%[46.1 µM]; Cruzain inh noDet: 3%; Marburg entry inh: -21%[46.1 µM]; StopGo reporter: -15%

Results for Cn1ccc(NC(=O)Nc2ccc(Cl)cc2Cl)n1 ?
Cruzain inh Det: -7.2%; LASV entry inh: inconclusive; RE007 growth inh: 5%; Cruzain inh noDet: 3%; Marburg entry inh: 9%; SARS PLpro yeast: -29%; StopGo reporter: 72%[activator]; NS1 function inh: -9%

How did O=C(CN(C(=O)c1csnn1)c1ccc(Cl)cc1)NC1CCCC1 do in these assays?
LASV entry inh: -16%[46.1 µM]; RE007 growth inh: -5%; Marburg entry inh: 17%[46.1 µM]; SARS PLpro yeast: 1%; StopGo reporter: 21%; NS1 function inh: 7%

Results for CCc1nnc(NC(=O)C2CC(=O)N(C3CCCCC3)C2)s1 (configuration not stated) ?
LASV entry inh: 17%[46.1 µM]; RE007 growth inh: -6%; Marburg entry inh: 0%[46.1 µM]; SARS PLpro yeast: -1%; StopGo reporter: -8%; NS1 function inh: 1%

What do the screens show for `O=C(O)c1ccc(-c2nnc(-c3ccc([N+](=O)[O-])cc3)o2)cc1`?
RE007 growth inh: 6%; SARS PLpro yeast: 4%; StopGo reporter: 0%; NS1 function inh: 18%

How did O=C1NCCN(Cc2ccc(F)cc2)C1CC(=O)N1CC=C(c2ccccc2)CC1 (configuration not stated) do in these assays?
LASV entry inh: -5%; RE007 growth inh: 11%; Marburg entry inh: inconclusive; SARS PLpro yeast: 2%; StopGo reporter: -1%; NS1 function inh: -1%

How did COc1ccc2c(c1)c(C(=O)O)c(C)n2CCc1ccc(OC)c(OC)c1 do in these assays?
LASV entry inh: -26%[46.1 µM]; RE007 growth inh: -5%; Marburg entry inh: inconclusive; SARS PLpro yeast: -2%; StopGo reporter: -7%; NS1 function inh: 6.3µM*

What do the screens show for `O=c1nc2n(-c3ccccc3F)c3ccccc3cc-2c(=O)[nH]1`?
Cruzain inh Det: -12%; LASV entry inh: inconclusive; Cruzain inh noDet: 6%; Marburg entry inh: -16%[46.1 µM]; StopGo reporter: 0%

Results for CC(C)OC(=O)C(=O)NNc1ccccc1 ?
Cruzain inh Det: 1.4%; LASV entry inh: 2%; RE007 growth inh: 223%; Cruzain inh noDet: 0%; Marburg entry inh: inconclusive; SARS PLpro yeast: -15%; StopGo reporter: -16%; NS1 function inh: 5%

How did COc1cc(C2Nc3ccc4ncccc4c3C3=C2C(=O)CC(C)(C)C3)cc(OC)c1O (configuration not stated) do in these assays?
Cruzain inh Det: -0.1%; LASV entry inh: -13%; RE007 growth inh: -7%; Cruzain inh noDet: 7%; Marburg entry inh: -5%; SARS PLpro yeast: -2%; StopGo reporter: 33%[activator]; NS1 function inh: -9%

Results for CC(C)(C)NC(=O)C(c1ccco1)N(C(=O)c1csnn1)c1ccccc1 (configuration not stated) ?
Cruzain inh Det: -5.0%; LASV entry inh: -7%; RE007 growth inh: 5%; Cruzain inh noDet: 9%; Marburg entry inh: -4%; SARS PLpro yeast: 0%; StopGo reporter: -29%; NS1 function inh: -4%
